Bioassay records as filed in PubChem.
YopH inh: YopH tyrosine phosphatase inhibitors, primary screen, biochemical, fluorescence Ex485/Em525. YopH tyrosine phosphatase [Yersinia enterocolitica]. inhibition, %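 (about 10 µM by stock and volumes)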. actives 0.16% (n = 140,000). AID 898, 2007;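 active means inhibition of 50% or more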;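 further: controls were vehicle for no effect and minimum signal wells for full effect; inactives centre near -20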
Mtb growth: M. tuberculosis H37Rv growth inhibitors, H37Rv strain (AID 1626) | M. tuberculosis H37Rv growth inhibition; higher % means a stronger effect | one-dose inhibition, % at 10 µM; IC50 in µM for titrated hits | actives 0.95% (n = 220,000);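 active means confirmed in a dose series; inconclusive means inhibition above 80% but not taken into the dose series; inactive means below 80% or under 30% at every dose of the series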;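 further: bacteria incubated seven days before Alamar blue readout; 0% = bacteria only wells and 100% = bacteria with antibiotic wells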
RecA intein inh: Mtb RecA intein splicing inhibitors, primary screen, biochemical, fluorescence, HTS | inhibition, %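 (about 9 µM by stock and volumes)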 | Protein RecA (Mycobacterium tuberculosis (strain ATCC 25618 / H37Rv)), P9WHJ3 | actives 0.75% (n = 290,000) | cell-free RecA intein splicing; in the data active means inhibition above about 30%; inconclusive means no clear call, values can overlap the other calls;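 further: 0% = vehicle wells and 100% = reference inhibitor control wells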
Target sequence (P9WHJ3 whole entry, looked up): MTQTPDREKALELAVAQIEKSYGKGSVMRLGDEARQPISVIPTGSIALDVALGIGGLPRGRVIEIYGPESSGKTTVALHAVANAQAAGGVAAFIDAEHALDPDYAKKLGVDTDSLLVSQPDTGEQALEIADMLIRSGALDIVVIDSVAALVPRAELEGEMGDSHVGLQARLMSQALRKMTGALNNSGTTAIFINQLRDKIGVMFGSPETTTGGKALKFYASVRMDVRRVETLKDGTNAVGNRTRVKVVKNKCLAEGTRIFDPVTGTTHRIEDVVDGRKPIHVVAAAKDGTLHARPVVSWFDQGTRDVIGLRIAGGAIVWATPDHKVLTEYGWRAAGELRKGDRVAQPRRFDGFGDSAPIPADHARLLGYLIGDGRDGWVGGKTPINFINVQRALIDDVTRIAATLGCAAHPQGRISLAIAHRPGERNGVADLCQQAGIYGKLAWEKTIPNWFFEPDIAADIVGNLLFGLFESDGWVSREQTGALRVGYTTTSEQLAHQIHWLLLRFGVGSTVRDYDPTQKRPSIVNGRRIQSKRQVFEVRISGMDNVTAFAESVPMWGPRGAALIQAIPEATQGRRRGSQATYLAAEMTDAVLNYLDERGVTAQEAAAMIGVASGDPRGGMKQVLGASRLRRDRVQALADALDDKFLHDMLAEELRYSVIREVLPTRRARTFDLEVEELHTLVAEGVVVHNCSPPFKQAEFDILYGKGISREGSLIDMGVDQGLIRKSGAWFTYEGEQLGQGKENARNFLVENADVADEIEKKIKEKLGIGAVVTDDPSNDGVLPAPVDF
Mtb betalactam: beta-lactam sensitization of Mtb H37Rv, H37Rv; M. tuberculosis H37Rv growth with meropenem, percent inhibition; hits of this screen are not shown here; inhibition, % at 25 µM; actives 0.27% (n = 330,000); AID 434955, 2010;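 active means about 74% or more and at least 40 points above the plate without the antibiotic, then above 30% in a dose series; inconclusive means first-round hits that could not be retested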;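 further: growth measured after seven days incubation then overnight dye step; 0% = bacteria only wells and 100% = bacteria with antibiotic; twin plates without the antibiotic show which effects depend on it; some results filed as inactive read as strong as hits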
Arbovirus anti: antivirals against arbovirus infection, primary screen, cell-based, full library, 10K replicate subset. arbovirus infection cell-based antiviral screen. inhibition, % at 10 µM. actives 0.37% (n = 200,000);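 active means inhibition from about 30%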;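 further: bluetongue infection of BSR cells; cell survival read as ATP light after 72 h; 0% = infected wells without compound and 100% = uninfected wells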
Arbovirus anti repeat: also measured in Arbovirus anti; calls as there; inhibition, %; measured here: 10K subset replicate screen; many hits read low in the repeat;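 first of two repeat runs on a subset; 0% = infected and 100% = uninfected wells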
Numbers without * were called inactive; ? = inconclusive; / = no result given. This is a subset (hit frequency here may not be typical).

SMILES	YopH inh	Mtb growth	RecA intein inh	Mtb betalactam	Arbovirus anti	others
COc1ccc(OC)c(NC(=S)N2CCC(C(O)(c3ccccc3)c3ccccc3)CC2)c1	-17	6%	9.8	-1	-7
O=C(NCc1cccnc1)C1CC(=O)N(C2CCCCC2)C1 (stereo not given)	-35	-6%	0.9	-6	0
O=C(CCN1C(=O)c2ccccc2C1=O)N1CCN(c2ccccc2)CC1	-26	-6%	-3.9	-4	1
COc1ccc(NC(=O)CN(C)C(=O)c2cccc(S(=O)(=O)Nc3ccccc3Cl)c2)cc1	/	/	-1.8	2	/
Nn1c(Cc2ccccc2F)nnc1SCCOc1ccc(Cl)cc1	-22	10%	/	-9	3
CCOCCCNC(=O)C(NC(=O)C1CCC(=O)N1)c1ccc(C)cc1 (stereo not given)	-48	4%	-2.2	-3	5	Arbovirus anti repeat=2
CCC(C)NS(=O)(=O)c1ccc(S(=O)(=O)Nc2cc3c(cc2C(C)=O)OCO3)cc1 (stereo not given)	-10	-7%	-0.8	-9	5
Cc1cc(S(=O)(=O)NCc2ccccc2)ccc1OCC(=O)N1CCN(C)CC1	13	-10%	-0.3	0	3
O=C(O)CCC(=O)NC1CCCCC1	8	-1%	-1.6	2	14
O=C(CSc1nc(-c2ccco2)cc(C(F)(F)F)n1)N1CCCc2ccccc21	-18	-4%	0.2	-4	-2
Cc1nc(N)nc2c1CCCC2	-17	-6%	0.3	-12	-1
CCOc1cc(NC(=S)NCC2CCCO2)c(OCC)cc1NC(=O)c1cccc(F)c1 (stereo not given)	/	3%	-1.5	-9	2

Continued, starting with the last five of the part before.
SMILES	YopH inh	Mtb growth	RecA intein inh	Mtb betalactam	Arbovirus anti	others
Cc1cc(S(=O)(=O)NCc2ccccc2)ccc1OCC(=O)N1CCN(C)CC1	13	-10%	-0.3	0	3
O=C(O)CCC(=O)NC1CCCCC1	8	-1%	-1.6	2	14
O=C(CSc1nc(-c2ccco2)cc(C(F)(F)F)n1)N1CCCc2ccccc21	-18	-4%	0.2	-4	-2
Cc1nc(N)nc2c1CCCC2	-17	-6%	0.3	-12	-1
CCOc1cc(NC(=S)NCC2CCCO2)c(OCC)cc1NC(=O)c1cccc(F)c1 (stereo not given)	/	3%	-1.5	-9	2
NS(=O)(=O)c1cccc(NC(=O)COC(=O)CC2CC3CCC2C3)c1 (stereo not given)	/	-4%	1.1	6	1
CC(CC(=O)Nc1ccc(Cl)c([N+](=O)[O-])c1)c1ccccc1 (stereo not given)	-22	75%	12	99	-29
CCOc1ccc(N(CC(=O)Nc2ccc(OC)cc2)S(C)(=O)=O)cc1	-35	-5%	4.0	-1	3
O=c1c2c(-c3ccc(Cl)cc3)csc2nc2n1CCC2	-27	-18%	0.2	52	-8
Cc1cc(C)c(OCCN2CCCC2)c(Cl)c1	/	/	-3.7	-7	/
Cc1[nH]c2ccccc2c1/C=N/NC(=O)CNC(=O)c1ccc2c(c1)OCCO2	/	-10%	-0.1	3	/
Cc1ccc(-c2nsc(SCC(=O)Nc3ccc4c(c3)OCO4)n2)cc1	-17	0.89µM*	2.9	99	12
Cc1c(Cl)cccc1NC(=S)NNS(=O)(=O)c1ccc([N+](=O)[O-])cc1	/	/	0.1	-3	/
CCOc1ccc(-n2c(=O)c3c(C)c(C(=O)N(C)C)sc3n(CC(=O)Nc3ccccc3F)c2=O)cc1	/	0%	0.4	-2	-9
O=C(CN1CCN(c2ccc(Cl)cc2)CC1)NCc1ccccc1	/	8%	0.7	-2	10
COc1ccc(C(=O)Nc2cc(-c3ccc(C)cc3)no2)cc1	/	/	-3.6	-5	/
Cc1ccc(/C=N/N=C/c2ccc(C)cc2)cc1	-35	10%	-0.6	17	-1

Grouped by structure, the entries above containing fluorine
SMILES	YopH inh	Mtb growth	RecA intein inh	Mtb betalactam	Arbovirus anti	others
Nn1c(Cc2ccccc2F)nnc1SCCOc1ccc(Cl)cc1	-22	10%	/	-9	3
O=C(CSc1nc(-c2ccco2)cc(C(F)(F)F)n1)N1CCCc2ccccc21	-18	-4%	0.2	-4	-2
CCOc1cc(NC(=S)NCC2CCCO2)c(OCC)cc1NC(=O)c1cccc(F)c1 (stereo not given)	/	3%	-1.5	-9	2
CCOc1ccc(-n2c(=O)c3c(C)c(C(=O)N(C)C)sc3n(CC(=O)Nc3ccccc3F)c2=O)cc1	/	0%	0.4	-2	-9

Remaining list, next part:
SMILES	YopH inh	Mtb growth	RecA intein inh	Mtb betalactam	Arbovirus anti	others
Cc1cccc(N2CCN(c3cccc(C)c3)C2c2cccnc2)c1	-30	15%	3.8	1	-24
O=S(=O)(c1ccccc1)N1CC1c1ccccc1 (stereo not given)	-14	2%	0.2	6	0
Cc1ccc(C(=O)OCC(=O)NC2CCCCC2)s1	/	4%	-1.0	87	4
CC(=O)N1N=C(c2ccco2)CC1c1ccc(Cl)o1 (stereo not given)	/	/	0.7	-3	/
O=C(CSc1nc2ccc(Nc3nc(N4CCOCC4)nc(N4CCOCC4)n3)cc2s1)NCc1ccco1	/	36µM*	-5.9	3	3
CC(C)(CC(=O)O)CC(=O)Nc1ccccc1Oc1ccccc1	/	-17%	-1.3	4	/
CC(C)CCNC(=O)c1ccc2c(SCC(=O)O)c3c(nc2c1)CCCC3	-26	-3%	5.4	-1	7
Cc1[nH]c2ccccc2c1Cc1n[nH]c(=S)o1	-36	5%	-0.9	2	3
Cc1cccc(C(=O)OCCN2CCOCC2)c1	/	/	-0.2	3	/
O=C1c2ccccc2S(=O)(=O)c2cc(C(=O)N3CCCC3)ccc21	/	8%	-3.2	2	/
O=C(Cn1nnc(-c2ccc(N3CCOCC3)cc2)n1)OC1CCCCC1	-34	80%	0.9	96	6
N#C/C(C(=O)Oc1ccccc1)=C1\C=Cc2ccccc2N1	-26	1%	/	-2	3
NNS(=O)(=O)c1ccc(Cc2ncc(C(F)(F)F)cc2Cl)s1	-4	0%	-0.9	-3	1
COc1ccc(Oc2c(Cl)cnn(-c3ccccc3)c2=O)cc1	-8	/	6.2	7	7
COCCN1CCN(C(=O)c2cc(COc3cncc(Cl)c3)on2)CC1	/	/	-1.9	3	/
CCc1c(C)nc2cc(-c3cccc(Br)c3)[nH]n2c1=O	/	/	1.7	9	/
Cc1ccc(C)c(NC(=O)CN(C)C(=O)c2cccc(S(=O)(=O)N3CCN(Cc4ccccc4)CC3)c2)c1	/	/	-1.4	1	/
O=Cc1cn(Cc2ccccc2[N+](=O)[O-])c2ccccc12	-20	11%	2.9	-4	2
O=C(COC(=O)Cc1n[nH]c(=O)c2ccccc12)Nc1ccc(Cl)cc1F	/	1%	-1.6	-4	3
COc1ccc(S(=O)(=O)NCc2ccc(C(=O)N(C)Cc3ccco3)cc2)cc1	1	-7%	1.0	3	-3
CSc1cccc(NC(=S)N(CCCN2CCCC2)Cc2cccs2)c1	/	-1%	0.2	-3	-6
COc1cc(/C=C(\NC(C)=O)C(=O)Nc2ccc(NC(C)=O)cc2)ccc1OC(C)=O	-8	5%	-4.6	-7	-2
Cc1ccccc1NC(=O)Cc1nnc(SCC(=O)c2ccc(Br)cc2)n1C	-3	3%	0.5	-5	12
Cc1cc(C)c(S(=O)(=O)Nc2ccccn2)c(C)c1	/	/	1.3	-8	/
CCSC1=NN2CCS(=O)(=O)N=C2S1	/	0%	-1.6	-2	5
OC(CN1CCCCC1)c1c[nH]c2ccccc12 (stereo not given)	/	/	1.5	-5	/
N#CCCN(C(=S)NC(=O)c1ccco1)c1ccccc1F	/	-10%	-3.7	-2	26
COc1ccc(-n2c(=S)[nH]c3cc(C(=O)Nc4ccccc4OC)ccc3c2=O)c(OC)c1	/	/	2.3	7	/
CC12C(=O)N(c3ccccc3C(=O)O)C(=O)C1C1C=CC2C1 (stereo not given)	-25	-3%	-1.1	9	1
Cc1cccc(N2C(=O)C3CCCN3C2=S)c1 (stereo not given)	/	/	5.6	-1	/
CCOC(=O)c1cnc2c(-c3cccc(Br)c3)cnn2c1C	-10	7%	0.2	2	3
O=c1[nH]n2c(C(F)(F)F)cc(C3CC3)nc2c1N=Nc1ccccc1	/	-8%	-0.2	43	1
CN(C)CCNC(=S)Nc1ccccc1C(C)(C)C	/	1%	/	-3	6
CC(Cn1nnc2ccccc21)C(=O)O (stereo not given)	/	0%	-2.4	-3	-3
C=CCc1cccc(/C=N/c2ncn[nH]2)c1O	-47	-4%	/	-2	6
CCOC(=O)C(C)Oc1ccccc1C1NC(=O)NC(C)=C1C(=O)Nc1ccc(C)c(C)c1 (stereo not given)	-17	-6%	0.8	-5	4
COc1ccc(OCc2nn[nH]n2)cc1	/	/	0.6	-4	/
CNC(=O)C1(C)C=CCN1C(=O)c1ccccc1 (stereo not given)	-27	-8%	0.2	-3	2
O=Cc1ccc(Sc2nnc(-c3ccccc3)o2)c([N+](=O)[O-])c1	-14	1%	55*	1	-24
Nc1nc(-c2ccco2)nn1C(=O)c1cccnc1	-45	0%	1.0	6	-3
COc1ccccc1CNC(=O)Cn1c(=O)c2cccn2c2cccnc21	/	/	-0.8	-2	/
S=c1nc(-c2cccc(Cl)c2)[nH][nH]1	/	3%	-2.0	-2	6
CCc1cc(=O)[nH]c(SCCc2ccccc2)n1	/	/	2.8	?	/
Cc1cccc(/C=N/n2c(C)nnc2C)c1	2	-4%	1.4	7	2
COc1ccc(NC(=O)CCC(=O)N(Cc2ccc(OC)c(OC)c2)c2nccs2)c(OC)c1	/	0%	-0.9	4	-8
Cc1ccc(C(=O)N/C(=C/c2ccco2)C(=O)N2CCC(C)CC2)cc1	/	/	4.7	4	/
Cc1cc(C)nc(NC(=O)c2cccc([N+](=O)[O-])c2C)n1	-20	-6%	-0.7	2	-1
CCSc1nnc(N(CCC(=O)O)CCC(=O)O)s1	-21	-5%	0.4	-3	1
COc1ccc(CN(C(=O)/C=C/c2ccco2)C2CCS(=O)(=O)C2)cc1 (stereo not given)	/	-3%	-0.3	-10	/
CCCc1ccc(-c2c(C)sc(NC(=O)c3ccnn3C)c2C#N)cc1	-18	11%	0.7	16	17
O=C(Nc1cc(S(=O)(=O)N2CCOCC2)ccc1N1CCOCC1)C1CCCO1 (stereo not given)	/	0%	0.0	-2	5
Cc1c(C(=O)O)cccc1-n1c(C)cc(C=O)c1C	/	1%	/	-3	5
CC1CCCN(S(=O)(=O)c2ccc3c(c2)C(C)(C)C(=O)N3C)C1 (stereo not given)	/	/	0.0	?	/
Cc1ccc(CSCC(=O)Nc2ccccc2F)cc1	/	?	1.8	9	1
Cc1c(OCc2nn[nH]n2)ccc2c(-c3ccccc3)cc(=O)oc12	-50	-9%	4.9	-8	-3
O=C(Nc1ccccc1N1CCOCC1)c1ccccc1NS(=O)(=O)c1ccc(F)cc1	-35	/	/	1	1
O=C(CCn1cccn1)Nc1ccc(-c2ccno2)cc1	/	/	-0.7	42	/
NC(=O)C1CCN(Cc2nc3ccccc3c(=O)[nH]2)CC1	-18	-1%	-1.0	-1	6
CN(CC(=O)Nc1ccncc1)S(=O)(=O)c1ccc(Br)cc1	-65	-13%	-0.2	-8	8
CC(C)(C)C(=O)C1=C(O)C(=O)N(c2ccccc2)C1c1ccccc1 (stereo not given)	/	/	-0.4	28	/

Structural class: the compounds so far with a CF3 group.
SMILES	YopH inh	Mtb growth	RecA intein inh	Mtb betalactam	Arbovirus anti	others
O=C(CSc1nc(-c2ccco2)cc(C(F)(F)F)n1)N1CCCc2ccccc21	-18	-4%	0.2	-4	-2
NNS(=O)(=O)c1ccc(Cc2ncc(C(F)(F)F)cc2Cl)s1	-4	0%	-0.9	-3	1
O=c1[nH]n2c(C(F)(F)F)cc(C3CC3)nc2c1N=Nc1ccccc1	/	-8%	-0.2	43	1

Next part:
SMILES	YopH inh	Mtb growth	RecA intein inh	Mtb betalactam	Arbovirus anti	others
CC1(C)CN(C(=S)Nc2ccc(F)cc2F)C1=O	/	/	-0.7	8	/
Nc1cccnc1Sc1cc(Cl)cc(Cl)c1	-5	2%	3.6	17	-12
O=C(CCNC(=O)c1ccc(Br)cc1)NCC1COc2ccccc2O1 (stereo not given)	/	/	1.7	?	/
COc1ccc(CNc2ccc(Br)cc2)cc1	/	8%	6.7	6	2
CCN(CC)S(=O)(=O)c1ccc(N2CCN(C)CC2)c(NC(=O)Nc2ccc(C)cc2)c1	/	/	-1.3	4	/
